# Compound activity from PubChem BioAssay.
# PINK1 modulator: PINK1 expression modulation; PINK1 immunofluorescence, high-content cytometry, 24 h; Potency, µM (series often up to 76.6 µM), for inactives: at the highest dose activation (PINK1 increase), usual class: activators; 410,000 tested, 0.2% active; AID 624263; active = well fitted activation curve with a large enough effect; inconclusive = small, poorly fitted or top-dose-only effect; inactive = flat fitted curve, though single readings scatter; cell line not stated here;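 also: potency is read from the fitted curve at half-maximal effect; % of control where 0% means no effect; nearly all actives have a fitted effect of over 65% in size; a mitochondrial uncoupler was the plate control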
#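 Fluorescence from anti-PINK1 antibody, together with nuclear and cell stains, was scanned on a laser-scanning cytometer. Before staining, stable-line cells were incubated 24 hours with compounds at 5 concentrations; primary antibody 12 h at 10 degrees C.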
# Six1-Eya2 blk: Six1/Eya2 interaction inhibition; Q15475+O00167; AlphaScreen GST-Six1/His-Eya2 binding, biochemical; hits give low values; control for the full effect not named in the record; activity change, % (concentration not given with the values); 360,000 tested, 0.56% active; in the data active = activity change below about -65%; inconclusive = about -30% to -65%; inactive = above about -30%; also: % is scaled to controls: 0 for no effect and ±100 for the full control effect
# Target sequence (O00167 whole entry, looked up): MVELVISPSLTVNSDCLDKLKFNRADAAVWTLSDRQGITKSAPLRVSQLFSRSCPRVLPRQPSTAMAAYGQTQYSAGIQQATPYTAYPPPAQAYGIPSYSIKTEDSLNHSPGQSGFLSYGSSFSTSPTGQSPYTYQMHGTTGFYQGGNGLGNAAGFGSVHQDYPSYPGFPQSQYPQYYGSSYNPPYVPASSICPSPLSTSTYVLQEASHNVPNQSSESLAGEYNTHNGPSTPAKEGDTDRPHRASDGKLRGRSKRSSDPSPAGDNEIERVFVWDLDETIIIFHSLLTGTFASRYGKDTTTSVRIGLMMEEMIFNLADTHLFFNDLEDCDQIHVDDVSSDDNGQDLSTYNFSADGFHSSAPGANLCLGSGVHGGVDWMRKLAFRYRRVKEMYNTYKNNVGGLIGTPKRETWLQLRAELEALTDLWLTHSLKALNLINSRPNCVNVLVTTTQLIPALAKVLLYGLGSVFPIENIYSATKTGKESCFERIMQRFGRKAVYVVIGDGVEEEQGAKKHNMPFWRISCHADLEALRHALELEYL
# Target sequence (Q15475 whole entry, looked up): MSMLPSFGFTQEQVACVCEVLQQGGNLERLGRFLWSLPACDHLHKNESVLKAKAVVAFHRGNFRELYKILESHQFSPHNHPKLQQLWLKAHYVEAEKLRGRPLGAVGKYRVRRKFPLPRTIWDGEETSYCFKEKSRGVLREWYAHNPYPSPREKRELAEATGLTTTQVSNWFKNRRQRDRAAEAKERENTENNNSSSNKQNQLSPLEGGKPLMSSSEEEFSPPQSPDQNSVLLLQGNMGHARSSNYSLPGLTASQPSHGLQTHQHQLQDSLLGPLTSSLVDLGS
#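 GST-Six1 + His-Eya2 (5X stock: 250/500 nM); Tris pH 8.0, 300 mM NaCl, 0.05% BSA, 0.02% Tween 20; GSH donor/Ni acceptor beads; 1 h 37 °C dark; AlphaScreen readout.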
# D2 potentiator: potentiates the human D2 dopamine receptor allosterically | P14416 | DiscoveRx D2 beta-arrestin cells, luminescence, 90 min; 100% = 57 uM dopamine signal | potentiation, % (concentration not given with the values) | 360,000 tested, 0.23% active | AID 624464; active = potentiation of 50% or more; inconclusive = 30% to 50%; inactive = 30% or less;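 also: compound concentration not given in the record; tested on top of an EC20 dose of dopamine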
#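 PathHunter D2 cells, attached overnight at 37 deg C, received compound in DMSO plus dopamine at EC20 (50 nM final) for 90 min at 37 deg C. Beta-arrestin recruitment was read as luminescence after 1 h with detection reagent at ambient temperature.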
# Sfp inh: inhibitors of Bacillus subtilis Sfp phosphopantetheinyl transferase | Q9F4F7 | Potency, µM, for the others: max response, negative = inhibition, usual class: inhibitors | Biochemical Sfp PPTase activity, qHTS | 310,000 tested, 3.5% active | AID 1490; active = well fitted inhibition curve with a large enough effect; inconclusive = small, poorly fitted or top-dose-only effect, or another doubt; inactive = no such curve, though single readings can be large or run the other way;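 also: the enzyme is Sfp with the accession as filed and its product quenches rhodamine fluorescence; potency is read from the fitted curve at half-maximal effect; 0% = enzyme reaction without inhibitor and -100% = no enzyme wells; top concentration of the series not given in the record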
#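 Sfp 15 nM + cpd, 15 min RT; start w/ rhodamine-CoA 5 uM, BHQ-2-YbbR 12.5 uM (final); 50 mM Hepes pH 7.6, 10 mM MgCl2, 0.01% NP-40, 0.01% BSA; read 525/598 nm at 0 and 30 min.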
# D2 agonist: activates the human D2 dopamine receptor; DiscoveRx PathHunter D2 beta-arrestin, luminescence, 90 min; 100% = 57 uM dopamine signal; activation, % (test concentration not listed); 360,000 tested, 0.084% active; in the data active = activation above about 40%; inconclusive = about 15% to 40%; inactive = below about 15%; also: compound concentration not given in the record; the text of the record calls up to 30% inactive
#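 DiscoveRx PathHunter D2 beta-arrestin cells (2,100/well) attached overnight, then compound-stimulated 90 min at 37 C in HBSS/10 mM HEPES/0.1% Tween-20 buffer; beta-galactosidase complementation read by luminescence after 1 h at ambient temperature. Dopamine 57 uM final (EC100) as control.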
# CtBP-E1A blk: inhibitors of CtBP/E1A interaction; 340,000 tested, 0.49% active; AID 651724; AlphaScreen GST-E1A/His-CtBP binding, 1536-well; hits give low values; control for the full effect not named in the record; activity change, % (test concentration not listed); in the data active means activity change below about -65%; inconclusive means about -30% to -65%; inactive means above about -30%; also: % is scaled to controls: 0 for no effect and ±100 for the full control effect; compound concentration not given in the record
#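 Homogeneous bead-based format: GST-tagged E1A captured on glutathione donor beads, His-tagged CtBP on nickel acceptor beads; compounds precede bead addition by 2 h at 37 °C.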
# TRPV1 potentiator: potentiators of human vanilloid receptor 1 (TRPV1) | TRPV1-expressing cells, Fluo-8 calcium influx, capsaicin EC20 potentiation; host cell line not named in the record; control for the full effect not named in the record | 320,000 tested, 0.02% active | Q8NER1 | potentiation, % at 8.33 µM | AID 540277; active means potentiation above 80%; inconclusive means 30% to 80%; inactive means below 30%; also: 0% is about no effect
#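 Cells expressing TRPV1 were dye-loaded with Fluo-8 and read kinetically: 10 s baseline, 3 min after compound (agonist portion), then 2 min after EC20 capsaicin (allosteric enhancer portion). Calcium-bound dye fluorescence at 480/520 nm.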
# The depositor's hits bear a star; u = inconclusive; x = not tested or not shown; & = joins results of further samples; [ ] = remark or other dose. Compounds as they come. Share with any hit: about 3.7%.
SMILES,PINK1 modulator,Six1-Eya2 blk,D2 potentiator,Sfp inh,D2 agonist,CtBP-E1A blk,TRPV1 potentiator
Clc1cccc2c1CCN(Cc1nc(-c3cnccn3)no1)C2,1.8%,5,-2,22%,-5.4,-7,-11
C=CCN(C(=O)CSc1nc2c(sc3ccccc32)c(=O)n1CCN(CC)CC)c1ccccc1,0.6%,-12,-23,50µM*,-10,-5,-12
O=c1c2c([nH]c3ccccc13)CCCC2,0.7%,-4,3,-1%,0.5,2,5
O=C(CNC(=O)c1cccc(F)c1)N/N=C/c1cccs1,0.3%,-4,-11,-3%,-5.3,x,u
O=C1c2cccc(OCc3ccc(F)cc3)c2CCN1Cc1ccccc1,24%,10,-7,u,-0.9,10,6
CN(C)S(=O)(=O)c1ccc2c(c1)nc(CCC(=O)NCCc1ccc(Cl)cc1)n2C,0.9%,1,-14,2%,3.5,-10,-5
O=C(CC1(O)C(=O)N(Cc2ccccc2)c2ccccc21)c1ccncc1 (stereo not drawn),7.0%,2,-25,-7%,-5.1,2,4
O=C(Nc1ccc(Cl)c(Cl)c1)c1ccncc1,2.1%,0,-2,2%,-1.8,2,-21
O=C(O)C1CC=CCC1C(=O)Nc1ccc(S(=O)(=O)N2CCCc3ccccc32)cc1 (stereo not drawn),7.6%[38.3 µM],-2,-5,6%,0.5,2,-4
O=C1CC2(CCN(C(=O)c3cccc(Cl)c3)CC2)Oc2ccccc21,-0.6%,0,-9,x,-2.1,-4,12
Cc1cc(C)nc(S/C=C/C(=O)c2ccccc2F)n1,-0.5%,19,-9,-29%,-5.2,0,-9
N#Cc1c(NC(=O)CSc2nnnn2C2CCCC2)sc2c1CCCC2,-4.0%[38.3 µM],2,-4,-16%,-1.4,26,-2
COc1ccc(CCNS(=O)(=O)c2ccccc2[N+](=O)[O-])cc1OC,0.6%,2,2,3%,-3.0,1,14
COc1ccc(-c2cc(C(F)(F)F)n3ncc(C(=O)N(C)Cc4ccccc4)c3n2)cc1,-3.1%,5,-2,5%,-1.2,23,-5
COc1ccc(CCNC(=O)CCS(=O)(=O)c2ccc3c(c2)oc(=O)n3C)cc1OC,-1.1%&2.0%,0,-2,18%,-5.1,6,3
C=CCn1c(C)nnc1SCC(=O)N1CCN(S(=O)(=O)c2ccccc2)CC1,-0.4%,-5,-7,-13%,-1.9,-3,-9
Cc1cc(C(F)(F)F)nc(NNc2nc(C)cc(C(F)(F)F)n2)n1,0.0%,1,-2,x,1.5,-18,x
CC(=O)Nc1ccc(SCC(=O)c2cc(C)n(CC(F)(F)F)c2C)cc1,0.8%,-10,3,3%,1.2,2,-3
CC(C)(C)NC(=O)CN(CCc1ccccc1)C(=O)c1csnn1,-1.5%,-1,-3,2%,-2.5,-10,2
CC1(C(=O)Nc2cccc(OC(F)(F)F)c2)Cc2c(-c3cccc(C(F)(F)F)c3)ccnc2O1 (stereo not drawn),13%,1,5,x,2.4,1,x
CCCNC(=O)N1CCN(S(C)(=O)=O)CC1,1.2%,13,-5,-7%,5.0,x,7
O=C(CCN1C(=O)/C(=C\c2cccc(Br)c2)SC1=S)NCCCN1CCOCC1,1.7%,0,-1,-4%,-6.1,-18,-3
O=C(Nc1ccccn1)c1cc(-n2cnnc2)ccc1Cl,-2.4%,7,-10,13%,-4.8,2,-3
O=C(CSc1ccc2nnc(-c3ccccc3)n2n1)NCc1ccco1,-0.1%[38.3 µM],-16,10,15%,-1.6,-17,3
O=C(O)c1ccc(Cn2ccc3ccccc32)o1,-0.4%,8,-7,1%,-5.4,x,6
Cc1ccc(NC(=O)CN(C)C(=O)COc2cc(F)ccc2[N+](=O)[O-])cc1,-0.9%,7,-33,16%,-4.6,-9,-9
CNC(=O)c1ccsc1NC(=O)c1ccc2c(c1)CCCC2,6.8%,0,-2,-3%,-3.1,-3,-9
O=C(O)c1ccc(/C=N/NC(=O)c2cc3ccccc3cc2O)cc1,1.6%,-4,-21,x,-0.7,-7,x
CCc1ccc(C(=O)NC(CCSC)C(=O)O)cc1 (stereo not drawn),0.4%,1,8,7%,-2.5,-2,5
COc1ccc(-c2ocnc2C(=O)N2CCN(Cc3cccnc3)CC2)cc1,-0.7%,6,-15,6%,-3.1,x,-7
O=C(N/N=C/c1cc(Br)c(O)c(Br)c1)c1cccc(C(F)(F)F)c1,-0.2%,6,-8,-24%,-4.8,-2,-5
COc1ccc(C(=O)O)cc1S(=O)(=O)NC1CCN(Cc2ccccc2)CC1,0.0%,23,-19,x,-2.3,-14,x
CCN(CC)c1ccc(/C=N/NC(=O)c2ccco2)c(O)c1,-0.7%,-65*,-20,-1%,-4.8,u,-26
Cc1ccc(NC(=O)CCNC(=O)Cn2ccc3ccccc3c2=O)cc1F,5.8%,2,-4,4%,-4.1,0,-1
CSc1nc(N)nc(SCCS(=O)(=O)c2ccc(Cl)cc2)c1C#N,u,-2,-12,0%,-3.3,-8,2
Cc1sc2ncnc(N3CCN(S(=O)(=O)c4ccc(Br)cc4)CC3)c2c1C,-3.2%,1,-11,x,-7.1,6,x
O=C(Nc1ccccc1C(=O)Nc1ccc(Cl)cc1)c1cccnc1,0.1%,1,-9,12%,-4.4,3,-9
COc1cccc(CC(=O)Nc2cc(S(=O)(=O)N3CCOCC3)ccc2N2CCOCC2)c1,-0.3%,10,-4,1%,-1.9,6,-3
CC(=O)NC(NC(=S)Nc1ccc(C)cc1C)C(Cl)(Cl)Cl (stereo not drawn),-0.7%,1,-12,15%,-4.9,x,11
CN1CCN(C(=O)C2CCN(c3ncnc4c3nc3n4CCCCC3)CC2)CC1,-0.6%,4,-8,21%,-1.4,7,2
CC1=C(C(=O)N2CCCCCC2)CC(CC(=O)NCCCN(C)C)C(=O)N1Cc1ccc(F)cc1 (stereo not drawn),-0.8%,0,x,x,x,5,x
CCCCN1C(=O)C(=O)N(CC(=O)N2N=C3/C(=C/c4ccco4)CCCC3C2c2ccco2)C1=O (stereo not drawn),3.9%,-5,1,45µM*,-3.5,-8,2
CCOc1ccccc1C(=O)Nc1nnc(Cc2ccc(OC)c(OC)c2)s1,2.7%,8,-1,-3%,-3.3,x,7
CCCCOc1ccc(/C=N/NC(=O)c2nnn(-c3nonc3N)c2C)cc1,-0.7%,-2,-2,4%,-2.5,x,4
CC(=O)c1c(C)[nH]c(C(=O)CN2C(=O)NC3(CCCCC3)C2=O)c1C,-1.1%,3,-3,x,1.9,-6,0
Cc1cc(OCC(O)CN(C)C(=O)C(C)Oc2ccccc2)ccc1Cl (stereo not drawn),1.3%,1,-9,-4%,0.8,x,-2
COc1ccc(CN2C(=O)c3cccnc3C2=O)cc1S(=O)(=O)NCc1ccc(C)o1,-0.1%,-8,-6,1%,-2.0,x,9
CN(C)c1ccc(-c2ccnc3c2CC(C)(C(=O)NCc2cccc(Cl)c2)O3)cc1 (stereo not drawn),-0.2%,-27,-12,x,-2.5,-28,x
N#Cc1cn(CC(=O)N2CCCc3ccccc32)c2ccccc12,-1.2%,-2,4,-9%,-0.6,4,14
N#Cc1ccccc1N/C=C/C(=O)c1ccc(Cl)cc1,-0.7%,-10,-6,x,-4.5,-3,x
# Next section.
SMILES,PINK1 modulator,Six1-Eya2 blk,D2 potentiator,Sfp inh,D2 agonist,CtBP-E1A blk,TRPV1 potentiator
CCNc1nc(OC)nc(Oc2ccc(C(=O)OC)cc2)n1,0.9%,23,-3,12%,-4.7,3,10
Cc1ccc(C(=O)NNC(=O)c2ccccc2OCc2c(C)noc2C)cc1,-0.3%,0,-4,x,0.7,7,-17
COCCN(C(=O)c1cccc(OC)c1)c1nnc(-c2ccncc2)s1,-0.1%,3,12,10%,5.9,7,-14
Cc1ccc(S(=O)(=O)N2CCN(Cc3ccccc3)CC2)c(C)c1N(C)S(=O)(=O)c1ccccc1,-1.0%,-16,-4,15%,5.0,-11,1
CC(C)CCNC(=O)C12CN(Cc3ccccc3)CC1C(c1cccc([N+](=O)[O-])c1)=NO2 (stereo not drawn),3.5%,-21,-27,13%,0.0,0,-4
O=c1[nH]c2c(s1)C(c1ccco1)C1C3CCC(C3)C1S2 (stereo not drawn),3.7%,-4,10,45µM*,-1.2,-6,-4
Cc1c(-c2ccccc2Br)nc2ccccc2c1C(=O)O,0.8%,2,-5,x,1.6,-3,x
O=C(NC(c1ccccc1)C(Cl)(Cl)Cl)c1ccccc1 (stereo not drawn),17%,7,7,-5%,-1.4,-3,-6
CSc1nc(Cl)cc(=O)[nH]1,0.5%,-1,3,9%,0.3,x,14
Cc1sc2ncn(CC(=O)N3CCOCC3)c(=O)c2c1-c1ccccc1,0.3%,36,-30,16%,-7.2,0,-1
COC(=O)c1c[nH]n2c(=O)c(Cl)c(C)nc12,0.4%,0,-7,20%,-4.7,-1,-7
CO/N=C/c1ccc(Oc2ccc(C)cc2)nc1,0.2%,19,-20,13%,1.0,10,-5
COc1ccc(/C=C/C(=O)c2nc3ccccc3n2CC(=O)c2ccc(OC)cc2)cc1,-3.4%,-8,-11,8%,-6.5,-9,5
Cc1nc2c(ncn2-c2ccccc2)c(=O)n1NC(=O)CN1CCOCC1,-0.3%,2,-8,16%,-6.7,-4,-6
CCOC(=O)c1ccc(NC(=O)Cn2ncc(Cl)c(Cl)c2=O)cc1,-2.3%,-30,-6,1%,2.9,-20,10
COc1ccc(C(CNC(=O)c2ccco2)N2CCCCC2)cc1 (stereo not drawn),-0.6%,0,-14,3%,-3.5,x,-2
CC(C)C(=O)Nc1c(-c2ccc(Cl)cc2)c(=O)c2ccccc2n1C,-0.6%,6,-6,11%,-2.3,4,-14
CCOC(=O)Cc1cc(=O)c2c(=O)n(-c3ccccc3)[nH]c2[nH]1,1.6%,-11,-8,21%,-0.2,-2,6
Cc1ccc(S(=O)(=O)N2CCCC2C(=O)NCc2ccncc2)cc1 (stereo not drawn),0.8%,20,1,-1%,3.3,17,-3
CC(C)(C)c1cc(/C=N/O)cc(C(C)(C)C)c1O,2.3%,1,9,9%,11,0,-6
CCc1cc2c(=O)c(-c3nc(C)cs3)coc2cc1O,1.0%,7,-2,-12%,-0.6,0,-11
